MLL AF4-AF9 inh: inhibitors of AF4 peptide binding to AF9, primary screen, biochemical, AlphaScreen, biotin-AF4 peptide, FLAG-AF9, single point; inhibition, % at 10 µM; Protein AF-9 (Homo sapiens), P42568; AID 651704, 2012; 0.47% of 350,000 active;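 active means every replicate reaching a set inhibition limit, whatever the replicate mean, cut at about 25% in these data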;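 further: 0% = plate neutral control median and 100% = total signal loss; the record names both 10 and 1 µM as test concentration; the first replicate is given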
Target sequence (P42568 whole entry, looked up): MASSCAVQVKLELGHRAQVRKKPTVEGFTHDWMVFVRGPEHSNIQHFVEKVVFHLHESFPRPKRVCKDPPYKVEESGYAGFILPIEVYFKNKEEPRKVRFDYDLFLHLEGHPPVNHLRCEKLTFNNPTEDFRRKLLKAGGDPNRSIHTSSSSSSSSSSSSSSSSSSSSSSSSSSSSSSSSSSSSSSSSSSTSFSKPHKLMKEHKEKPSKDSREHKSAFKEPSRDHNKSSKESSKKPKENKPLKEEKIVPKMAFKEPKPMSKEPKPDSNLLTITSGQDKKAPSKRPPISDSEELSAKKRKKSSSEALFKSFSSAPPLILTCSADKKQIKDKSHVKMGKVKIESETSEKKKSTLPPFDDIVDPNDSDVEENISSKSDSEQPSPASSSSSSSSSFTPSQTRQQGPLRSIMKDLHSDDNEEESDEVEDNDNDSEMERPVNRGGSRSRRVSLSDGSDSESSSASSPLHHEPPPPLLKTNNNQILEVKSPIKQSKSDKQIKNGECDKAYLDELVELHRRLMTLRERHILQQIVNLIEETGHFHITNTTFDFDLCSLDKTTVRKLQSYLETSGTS
* marks the source's active call; other numbers are inactive results; & = joins results of further samples.

MLL AF4-AF9 inh,canonical_smiles
-1.3,C[C@@H]1CN([C@@H](C)CO)C(=O)Cc2cc(NC(=O)Cc3ccccc3)ccc2O[C@H]1CN(C)C(=O)Nc1cccc2ccccc12
-2.5,N#C[C@@H]1[C@@H](c2ccccc2-c2ccc(F)cc2)[C@H](CO)N1c1ncc(-c2ccccc2)s1
2.7,C[C@H](CO)N1C[C@H](C)[C@H](CN(C)S(=O)(=O)c2ccccc2)Oc2ncc(C#Cc3ccccc3)cc2C1=O
0.1,CCCNC(=O)C[C@H]1C[C@H]2c3cc(N(C)C)ccc3O[C@H]2[C@@H](CO)O1
1.3,C[C@@H]1CN([C@H](C)CO)C(=O)c2cccc(NS(=O)(=O)c3ccccc3)c2O[C@@H]1CN(C)C(=O)Nc1ccc(C(F)(F)F)cc1
0.0,O=C(C[C@@H]1CC[C@H](NC(=O)C2CCOCC2)[C@H](CO)O1)NCC1CCCCC1
3.0,COc1cccc(S(=O)(=O)N(C)C[C@H]2Oc3ncc(C#CC(C)C)cc3C(=O)N([C@H](C)CO)C[C@@H]2C)c1
-1.5,O=C1NC(Cc2ccccc2)c2nc3ccc(Cl)cc3c(=O)n2-c2ncccc21 (centres undefined)
1.9,COc1ccc(S(=O)(=O)N(C)C[C@H]2OCCCC[C@H](C)Oc3ccc(NC(=O)CCCN(C)C)cc3C(=O)N([C@H](C)CO)C[C@@H]2C)cc1
3.5,CCCC#Cc1ccc([C@H]2[C@H]3CN(C(=O)c4ccc5c(c4)OCO5)CCCCN3[C@H]2CO)cc1
-2.2,COCc1cn([C@H]2C[C@@H]3O[C@H](CO)CC[C@@H]3O[C@@H]2CCc2ccc(-c3ccc(OC)cc3)cc2)nn1
-3.3,Cc1ccc(Cc2c(-c3cccc(Cl)c3)nc3ccc(Cl)cn23)cc1
-5.3,C[C@H]1CCCCO[C@@H](CN(C)C)[C@@H](C)CN([C@@H](C)CO)C(=O)c2cc(NC(=O)c3ccncc3)ccc2O1
-13,CO[C@@H]1CC[C@H]2CCOc3c(C#N)cccc3C(=O)N(C)[C@@H](C)C(=O)N(C)C[C@H]1O2
0.3,COCC(=O)Nc1ccc2c(c1)[C@H]1C[C@H](CC(=O)NCc3cccc(F)c3)O[C@@H](CO)[C@H]1O2
-5.6,Cc1cccc(S(=O)(=O)N2CC[C@@H]3[C@H]2c2cc(C#Cc4ccc(F)cc4)ccc2N[C@@H]3CO)c1
9.8,C[C@H](CO)N1C[C@H](C)[C@H](CN(C)C(=O)c2ccncc2)OCCCC[C@H](C)Oc2ccc(NC(=O)CCCCCC(=O)Nc3ccccc3N)cc2C1=O
0.2,COc1cc2c(cc1OC)/C(=C/C(=O)OCc1ccccc1)OC2
-1.4,CCCC#Cc1cnc2c(c1)C(=O)N([C@@H](C)CO)C[C@@H](C)[C@@H](CN(C)C(=O)c1ccccc1)O2
1.6,COc1ccc(-c2ccc(N3C(c4cc(OC)cc(OC)c4)=Cc4ccc(OC)cc4C3CC(C)=O)cc2)cc1 (centres undefined)
1.4,COc1ccc(C(=O)OCC(=O)Nc2cccc(S(=O)(=O)N3CCCCCC3)c2)cc1[N+](=O)[O-]
0.1,C[C@H](CO)N1C[C@H](C)[C@H](CN(C)Cc2ccc3c(c2)OCO3)Oc2ccc(NC(=O)Nc3ccc(C(F)(F)F)cc3)cc2CC1=O
-1.1,COC(=O)C[C@H]1CC[C@H]2[C@H](COc3ccc(NC(=O)NC(C)C)cc3C(=O)N2C)O1
2.2,C[C@]1(CC/C(=C/CO)CO)[C@H](C=O)CC[C@@]23COC(=O)C2=CCC[C@@H]31
4.1,COc1cccc(-c2ccc([C@@H]3[C@@H](CO)N4CCCCN(CC5CC5)C[C@@H]34)cc2)c1

(more compounds)
MLL AF4-AF9 inh,canonical_smiles
0.6,CO[C@H](CN(C)C(=O)C1CC1)[C@@H](C)CN(C(=O)Nc1ccc(C(F)(F)F)cc1)[C@H](C)CO
4.6,CN(C)CC#Cc1ccc([C@@H]2[C@@H](CO)N3CCCCN(C(=O)Nc4ccccc4F)C[C@@H]23)cc1
-4.5,N#Cc1ccc(-c2ccc([C@@H]3[C@H]4CN(C(=O)C5CC5)CC(=O)N4[C@H]3CO)cc2)cc1
-1.9,O=C(c1ccc(F)cc1)N1CC(=O)N2[C@@H](CO)[C@@H](c3ccc(C#CC4CC4)cc3)[C@@H]2C1
12,O=C(Nc1ccccc1)N1CCCCN2[C@H](CO)[C@H](c3ccc(-c4ccccc4F)cc3)[C@H]2C1
3.3,COc1ccc(S(=O)(=O)N(C)C[C@@H]2Oc3ccc(NS(=O)(=O)c4ccc(C)cc4)cc3C(=O)N([C@@H](C)CO)C[C@H]2C)cc1
-2.0,CCCC#Cc1ccc([C@H]2[C@@H](CO)N3CCCCN(Cc4ccncc4)C[C@@H]23)cc1
0.4,Cc1ccc(S(=O)(=O)N(C)C[C@@H]2Oc3ccc(N(C)C)cc3CC(=O)N([C@H](C)CO)C[C@@H]2C)cc1
1.9,CCCNC(=O)N1[C@H](CO)[C@H](c2ccc(-c3ccc(C#N)cc3)cc2)[C@@H]1CNC
-0.5,C[C@H](CO)N1C[C@H](C)[C@H](CN(C)C(=O)c2ccccc2)OCCCC[C@H](C)Oc2ccc(NC(=O)Nc3ccccc3)cc2C1=O
1.8,CCCNC(=O)N1CC2(CN(C(=O)C3CCOCC3)C2)c2c([nH]c3cc(OC)ccc23)[C@H]1CO
1.6,CN(C)CC#Cc1ccc([C@H]2[C@@H](CO)N3CCCCN(C(=O)Nc4ccccc4F)C[C@H]23)cc1
-0.2,COc1ccc(CCNC(=O)Nc2ccc3c(c2)c(=O)n(C)n3C)cc1OC
-2.4,COc1ccc(S(=O)(=O)Nc2ccc3c(c2)C(=O)N([C@@H](C)CO)C[C@@H](C)[C@@H](CN(C)Cc2ccc(C(=O)O)cc2)OCCCC[C@H](C)O3)cc1
-3.1,O=C(C[C@@H]1CC[C@@H]2[C@H](COC[C@H](O)CN2S(=O)(=O)c2cccc(Cl)c2)O1)NCCCN1CCOCC1
4.5&-3.4,COc1ccccc1NC(=O)N1C[C@@H]2N[C@H](C1)C2c1ccc(-c2ccc(C#N)cc2)cc1 (some centres undefined)
-0.4,C[C@H]1CN([C@@H](C)CO)C(=O)Cc2cc(NC(=O)Nc3ccccc3)ccc2O[C@H]1CN(C)Cc1ccc(C(F)(F)F)cc1
2.5,COc1ccc(C)cc1NC(=O)CN1c2cccc3cccc(c23)S1(=O)=O
2.2,C[C@H]1CCCCO[C@H](CN(C)C(=O)Nc2ccc(C(F)(F)F)cc2)[C@@H](C)CN([C@@H](C)CO)C(=O)c2cc(NS(=O)(=O)c3cn(C)cn3)ccc2O1
1.8,CC(C)CC#Cc1cnc2c(c1)C(=O)N([C@@H](C)CO)C[C@H](C)[C@H](CN(C)C(=O)Nc1cccc(F)c1)O2
20&1.4,C/C=C/c1cccc(-c2nc(C(=O)N3CCCCC3)cc3c2[C@H](CCO)N(C(=O)NC(C)C)C3)c1
-5.1,OCCCNc1ncnc2c1ncn2[C@H]1CN(Cc2ccc3c(c2)OCO3)C[C@@H](CO)O1
1.4,CCNC(=O)Nc1ccc2c(c1)C(=O)N(C)[C@@H]1CC[C@H](CC(=O)Nc3ccccc3)O[C@@H]1CO2
-0.2,C[C@@H]1CN([C@H](C)CO)C(=O)c2cc(NC(=O)CCC(F)(F)F)ccc2O[C@H]1CN(C)S(=O)(=O)c1ccc(Cl)cc1
-1.6,O=C(C[C@H]1CC[C@H]2[C@@H](COC[C@@H](O)CN2S(=O)(=O)c2cccc(F)c2)O1)Nc1ccccc1

Arranged by SMILES length (low to high): six of the compounds above.
MLL AF4-AF9 inh,canonical_smiles
2.5,COc1ccc(C)cc1NC(=O)CN1c2cccc3cccc(c23)S1(=O)=O
1.9,CCCNC(=O)N1[C@H](CO)[C@H](c2ccc(-c3ccc(C#N)cc3)cc2)[C@@H]1CNC
1.6,COc1ccc(-c2ccc(N3C(c4cc(OC)cc(OC)c4)=Cc4ccc(OC)cc4C3CC(C)=O)cc2)cc1 (centres undefined)
4.6,CN(C)CC#Cc1ccc([C@@H]2[C@@H](CO)N3CCCCN(C(=O)Nc4ccccc4F)C[C@@H]23)cc1
1.4,CCNC(=O)Nc1ccc2c(c1)C(=O)N(C)[C@@H]1CC[C@H](CC(=O)Nc3ccccc3)O[C@@H]1CO2
0.1,C[C@H](CO)N1C[C@H](C)[C@H](CN(C)Cc2ccc3c(c2)OCO3)Oc2ccc(NC(=O)Nc3ccc(C(F)(F)F)cc3)cc2CC1=O

Next section:
MLL AF4-AF9 inh,canonical_smiles
-4.0,CS(=O)(=O)N1CC2(C1)[C@@H](c1ccccc1)[C@H](CO)N2C(=O)C1CCC1
-2.9,COc1cccc(C#Cc2cnc3c(c2)C(=O)N([C@H](C)CO)C[C@@H](C)[C@@H](CN(C)C(=O)C2CC2)O3)c1
0.5,O=C(C[C@H]1CC[C@@H](NC(=O)c2ccncc2)[C@H](CO)O1)NCC1CCCCC1
0.7,Cc1cc(C(=O)N2CCCC2(C)C(=O)O)c(C)o1 (centres undefined)
2.7,C[C@H]1CN([C@@H](C)CO)C(=O)c2cc(C3=CCCCC3)cnc2O[C@@H]1CN(C)C(=O)c1ccc2c(c1)OCO2
-0.1,COc1ccc(CNC(=O)C[C@@H]2C[C@H]3c4cc(NC(=O)NC5CCCC5)ccc4O[C@H]3[C@@H](CO)O2)cc1
-2.8,O=C(CC[C@H]1O[C@@H](n2ccc(=O)[nH]c2=O)[C@H](O)[C@@H]1O)N[C@H](Cc1ccccc1)C(=O)NCCCN1CCCC1=O
1.0,CCC(CC)C(=O)N(C)c1c(C)nc2c(OCc3ccccc3C(=O)OC)cccn12
-2.9&0.5,O=S(=O)(c1ccc(-c2ccccc2)cc1)N1[C@@H]2CNC[C@H]1C2c1ccc(-c2cccnc2)cc1 (some centres undefined)
-5.3,O=S1(=O)c2c(Oc3cccc4ccccc34)cccc2OC(COCc2ccccc2)CN1C1CCCC1 (centres undefined)
-1.0,CO[C@@H](CN(C)S(=O)(=O)c1cn(C)cn1)[C@H](C)CN(C(=O)Nc1ccc(F)cc1)[C@H](C)CO
0.3,CC(C)(C)CNC(=O)C1(C)CCN1C(=O)c1ccccc1CCc1ccccc1 (centres undefined)
1.2,C[C@H](NC(=O)C[C@H]1C[C@@H]2c3cc(NC(=O)Cc4ccncc4)ccc3O[C@@H]2[C@H](CO)O1)c1ccccc1
-4.8,COc1ccc(C(=O)N2CCOCC2c2cc(C(=O)NCc3ccccc3)no2)cc1 (centres undefined)
0.3,C[C@H](CO)N1C[C@H](C)[C@H](CN(C)Cc2ccc(-c3ccccc3)cc2)Oc2ccc(NC(=O)C3CCCCC3)cc2CC1=O
4.2,Cc1ccc(S(=O)(=O)Nc2ccc3c(c2)C(=O)N([C@H](C)CO)C[C@@H](C)[C@@H](CN(C)C(=O)C2CCCCC2)OCCCC[C@@H](C)O3)cc1
1.8,C[C@H](CO)N1C[C@H](C)[C@H](CN(C)Cc2ccncc2)OCCCC[C@H](C)Oc2ccc(NC(=O)C3CCCCC3)cc2C1=O
-5.2,COc1ccc(CN(C)C[C@H]2Oc3ccc(NC(=O)Nc4c(C)noc4C)cc3C(=O)N([C@H](C)CO)C[C@H]2C)cc1
-1.7,CCC(=O)Nc1ccc2c(c1)C(=O)N(C)C[C@@H](OC)[C@H](C)CN(C(=O)c1cccnc1)[C@@H](C)CO2
-0.4,COCC(=O)N1CC2(CCN(Cc3ccccc3)CC2)c2c(n(C)c3cc(OC)ccc23)[C@@H]1CO
0.9,O=C(Nc1ccc(Cl)cc1)N[C@@H]1CC[C@H](CCn2cc(Cc3ccccc3)nn2)O[C@H]1CO
3.2,Cc1ccc(S(=O)(=O)N(C)C[C@@H]2Oc3ccc(NC(=O)Nc4ccc(F)cc4)cc3C(=O)N([C@@H](C)CO)C[C@@H]2C)cc1
2.6,CO[C@H]1CN(C)C(=O)c2cc(NC(C)=O)ccc2OC[C@@H](C)N(C(=O)Cc2cccnc2)C[C@H]1C
6.2,COc1ccccc1-n1c(Cc2cccc3ccccc23)nnc1SCC(=O)O
2.3,O=C(Nc1ccc(F)cc1)N1CC(=O)N2[C@H](CO)[C@@H](c3ccc(-c4ccc(F)cc4)cc3)[C@@H]2C1

A few values from above:
In MLL AF4-AF9 inh, O=S1(=O)c2c(Oc3cccc4ccccc34)cccc2OC(COCc2ccccc2)CN1C1CCCC1 (centres undefined) shows -5.3
In MLL AF4-AF9 inh, CCCNC(=O)N1[C@H](CO)[C@H](c2ccc(-c3ccc(C#N)cc3)cc2)[C@@H]1CNC shows 1.9
In MLL AF4-AF9 inh, COc1ccc(CN(C)C[C@H]2Oc3ccc(NC(=O)Nc4c(C)noc4C)cc3C(=O)N([C@H](C)CO)C[C@H]2C)cc1 shows -5.2
In MLL AF4-AF9 inh, CCCNC(=O)N1CC2(CN(C(=O)C3CCOCC3)C2)c2c([nH]c3cc(OC)ccc23)[C@H]1CO shows 1.8

Carrying on.
MLL AF4-AF9 inh,canonical_smiles
-2.3,C[C@H](CO)N1C[C@H](C)[C@H](CN(C)S(=O)(=O)c2cccc(F)c2)Oc2ncc(C#Cc3ccccc3)cc2C1=O
0.8,CCCCCC(=O)N1C[C@H](O)[C@@H](n2cc(C3CC3)nn2)C[C@@H]1c1ccc(C)cc1
4.7,C[C@@H]1CCCCO[C@@H](CN(C)C(=O)C2CCCCC2)[C@@H](C)CN([C@H](C)CO)C(=O)c2cc(NC(=O)Nc3ccc4c(c3)OCO4)ccc2O1
-2.9,C/C=C/c1cnc2c(c1)C(=O)N([C@@H](C)CO)C[C@H](C)[C@H](CN(C)S(=O)(=O)c1cn(C)cn1)O2
0.4,CCc1nc(N2[C@H](C#N)[C@@H](c3ccccc3-c3ccc(F)cc3)[C@@H]2CO)sc1C
-2.3,C[C@@H]1CN([C@H](C)CO)C(=O)c2cc(NS(C)(=O)=O)ccc2O[C@@H]1CN(C)C(=O)Nc1ccc(C(F)(F)F)cc1
-2.5,O=C(N[C@@H]1CC[C@@H](CCNC(=O)C2CCCC2)O[C@H]1CO)c1ccccn1
3.0,N#Cc1cccc(C(=O)NCC2CCN(C(=O)C(=O)c3cc4ccccc4o3)CC2)c1
-3.2,O=C(C[C@H]1CC[C@H]2[C@@H](COC[C@H](O)CN2Cc2nccs2)O1)NCc1ccc(-c2ccccc2)cc1

High-throughput results: PubChem, Broad Institute

This is a subset. The share of hits here may be higher or lower than overall.
